VDR inh: vitamin D3 receptor (human) inhibition. VDR-SRC2-3 peptide fluorescence polarization, 2 h. Potency, µM, for inactives: max response, negative = inhibition, usual class: inhibitors. hit rate 0.93% among 400,000. AID 504847; active means well fitted inhibition curve with a large enough effect; further: series mostly up to about 120 µM
Target sequence (P11473 whole entry, looked up): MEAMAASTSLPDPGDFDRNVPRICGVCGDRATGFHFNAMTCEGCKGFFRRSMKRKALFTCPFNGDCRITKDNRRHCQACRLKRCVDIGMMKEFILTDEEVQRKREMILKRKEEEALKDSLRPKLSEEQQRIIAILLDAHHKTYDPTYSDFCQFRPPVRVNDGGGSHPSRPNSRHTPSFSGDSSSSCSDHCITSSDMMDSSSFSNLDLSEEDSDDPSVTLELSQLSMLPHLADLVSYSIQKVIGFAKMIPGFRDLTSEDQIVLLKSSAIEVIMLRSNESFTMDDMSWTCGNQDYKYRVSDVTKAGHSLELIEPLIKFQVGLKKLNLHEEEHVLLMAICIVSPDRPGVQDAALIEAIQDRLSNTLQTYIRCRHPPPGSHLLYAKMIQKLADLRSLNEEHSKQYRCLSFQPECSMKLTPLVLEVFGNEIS
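Reagent solutions, kept cold and dark, are dispensed first; compounds are then pinned in at 23 nl, plates briefly spun, and incubated 2 h at ambient temperature. Inhibition of VDR–SRC2-3 peptide binding is read by fluorescence polarization.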
* marks the source's active call; other numbers are inactive results; ! = repeats disagree; [ ] = another dose, or the depositor's remark. On the % scale 0 is the no-effect control and ±100 the full control effect; potency means the concentration at half of the fitted maximal effect. These rows are one share of the data; rates above refer to the full screens.

CCOC(=O)c1nnn(-c2nonc2N)c1CN1CCc2ccccc2C1 was read as VDR inh 5.0%.
For O=C(CSc1nc(-c2ccc(F)cc2)nc2c1Cc1ccccc1O2)Nc1ccc(C(=O)O)cc1 the results were VDR inh -14.0%.
Screening Cc1c(Cl)cccc1NC(=O)Nc1cccnc1 returned VDR inh 6.0%.
S=C(Nc1ccccc1)N1CCn2c1nc1ccccc12 was read as VDR inh 14.5%.
For CC(C)C(=O)NCC(c1cccs1)S(=O)(=O)c1ccc(F)cc1 (stereo not drawn) the results were VDR inh -15.6%.
For CCC1CN(C(=O)N2CCC(C(=O)NCc3ccc(N(C)C)cc3)CC2)c2ccccc2O1 (stereo not drawn) the results were VDR inh 7.0%.
Screening O=C(N/N=C\c1ccc(Cl)s1)c1ccc(Cn2cccn2)o1 returned VDR inh 70.8µM*.
Screening Cc1cc(C(=O)Nc2cccnc2)cs1 returned VDR inh 3.8%.
Screening CC1Cn2c(C(=O)NCc3cccc(Br)c3)cc3cccc(c32)S1 (stereo not drawn) returned VDR inh 6.2%.
Screening COC(=O)c1ccccc1S(=O)(=O)N(Cc1ccco1)Cc1cc2cc(OC)ccc2[nH]c1=O returned VDR inh -2.8%.
C=CCNC(=S)Nc1ccc(Cl)cc1F was read as VDR inh 1.9%.
For CCN(CC)CCCNC(=O)CCC(=O)NNc1nc2ccccc2c2nc(C)nn12 the results were VDR inh 79.4µM*!.
Screening COCCNC(=S)N(CCc1c(C)[nH]c2ccc(C)cc12)Cc1ccco1 returned VDR inh 16.4%.
For COc1ccc(/C=C2\Sc3ccc(C(=O)NCc4cccnc4)cc3N(C)C2=O)cc1OC the results were VDR inh 2.6%.
NS(=O)(=O)c1ccc(CNC(=O)c2ccc3ccccc3n2)cc1 was read as VDR inh -10.6%.
Screening O=C1CC(C(=O)Nc2ccccc2)S/C(=N\N=C\c2ccco2)N1 (stereo not drawn) returned VDR inh -3.2%.
Screening COC(=O)c1ccc(N(CC(=O)NC2CCCC2)C(=O)c2ccc(C)s2)cc1 returned VDR inh -7.7%.
Screening Cc1ccccc1OCCC(=O)OCC(=O)NNC(=O)c1cccs1 returned VDR inh -4.4%.
CCN(CC)C(=O)c1sc(N)c(C#N)c1C was read as VDR inh 11.4%.
`Cc1nc2c(c(C)nn2-c2ccccc2)c(C)c1C` gave VDR inh -18.9%.
For CCn1c(-c2ccc(Cl)cc2)n[nH]c1=S the results were VDR inh -3.5%.
For COc1ccc(CNS(=O)(=O)CCNC(=O)c2cccc(OC)c2)cc1 the results were VDR inh -11.5%.
`COc1ccc(CN2CCCC(N3CCN(c4ccc(OC)cc4)CC3)C2)cc1` (stereo not drawn) gave VDR inh -20.0%.
Screening Cc1ccnn1-c1ccc(C(=O)OCC(=O)Nc2ccc(F)cc2)cc1 returned VDR inh 18.9%.
Screening CC(=O)c1ccc(NC(=O)CCNS(=O)(=O)c2cccc3nonc23)cc1 returned VDR inh 11.5%.
`COc1cc(C)c(NC(=O)Cc2ccsc2)cc1OC` gave VDR inh -3.3%.
`O=C(NN1C(=O)C2C3C=CC(C3)C2C1=O)C(O)c1ccccc1` (stereo not drawn) gave VDR inh -5.1%.
`O=C(CSc1nncn1-c1ccccc1)NC1CCCCC1` gave VDR inh -6.6%.
`CN(C)C(CNC(=O)C1CCCN1C(=O)c1cccs1)c1ccccc1` (stereo not drawn) gave VDR inh -5.6%.
Screening O=c1cnnc(Nc2cccc(C(F)(F)F)c2)[nH]1 returned VDR inh 1.8%.
Screening CC(=O)Nc1ccc(S(=O)(=O)N2CCC(C(=O)NCCC(=O)NCc3ccccc3)CC2)cc1 returned VDR inh -28.8%.
For Cc1cc(C(=O)N/N=C/c2c(C)nn(-c3ccccc3)c2C)n[nH]1 the results were VDR inh -7.8%.
For Cc1nn(C)c2c1c(-c1ccccc1)cc(=O)n2Cc1ccc(F)cc1Cl the results were VDR inh -3.6%.
COc1cc(C)c(S(=O)(=O)NCCCn2ccnc2)cc1C was read as VDR inh -14.7%.
For Cc1cc(OCc2cc(C(=O)NCc3cc(C(C)C)no3)no2)cc(C)c1Cl the results were VDR inh -12.1%.
For C=CCOC(=O)C1=C(C)NC(=O)NC1/C=C/c1ccccc1 (stereo not drawn) the results were VDR inh 9.9%.
`N#Cc1cc(S(=O)(=O)N2CCOCC2)ccc1N1CCOCC1` gave VDR inh 30.0%[activator].
Screening O=C(NCc1ccccc1)C(=O)NCC1OCCN1S(=O)(=O)c1ccc2c(c1)OCCO2 (stereo not drawn) returned VDR inh -12.8%.
Screening CCOc1ccc(S(=O)(=O)N2CCOCC2)cc1[N+](=O)[O-] returned VDR inh -6.3%.
Screening COc1ccc(S(=O)(=O)N(C)C[C@H]2Oc3ccc(NS(=O)(=O)c4ccc(F)cc4)cc3C(=O)N([C@H](C)CO)C[C@@H]2C)cc1 returned VDR inh 5.1%.
`Cc1c(NC(=O)C(CC(=O)O)NCc2ccco2)c(=O)n(-c2ccccc2)n1C` (stereo not drawn) gave VDR inh -1.5%.
`CS(=O)(=O)N1CCCC(C(=O)Nc2ccccc2F)C1` (stereo not drawn) gave VDR inh -3.0%.
`Cc1ccc(C)c(NS(=O)(=O)c2ccc(-c3ccc(=O)[nH]n3)o2)c1` gave VDR inh -1.3%.
Screening CC(C)(O)[C@@H]1CCC[N+]2(C)CCCC[C@H]12 (stereo partly drawn) returned VDR inh -2.8%.
For CC(=O)N=c1sc2cc(C)ccc2n1C the results were VDR inh -3.0%.
Screening Clc1ccc(OC2CCN(Cc3nc(CC4CC4)no3)CC2)cc1 returned VDR inh 15.4%.
`CCCCn1c(CNC(=O)Cc2ccccc2)nc2ccccc21` gave VDR inh 2.1%.
For Cc1ccccc1-c1nc2ccccc2[nH]1 the results were VDR inh -7.6%.
For Cc1nccc(-c2ccc(-n3cnc4ccccc43)cc2)n1 the results were VDR inh -2.8%.
For Cc1ccc(Cl)cc1NC(=O)CN1C(=O)NC(C)(C2CC2)C1=O (stereo not drawn) the results were VDR inh 15.6%.

In the list so far, these have a Cl atom:
Screening Cc1c(Cl)cccc1NC(=O)Nc1cccnc1 returned VDR inh 6.0%.
Screening O=C(N/N=C\c1ccc(Cl)s1)c1ccc(Cn2cccn2)o1 returned VDR inh 70.8µM*.
C=CCNC(=S)Nc1ccc(Cl)cc1F was read as VDR inh 1.9%.
For CCn1c(-c2ccc(Cl)cc2)n[nH]c1=S the results were VDR inh -3.5%.
For Cc1nn(C)c2c1c(-c1ccccc1)cc(=O)n2Cc1ccc(F)cc1Cl the results were VDR inh -3.6%.
For Cc1cc(OCc2cc(C(=O)NCc3cc(C(C)C)no3)no2)cc(C)c1Cl the results were VDR inh -12.1%.
Screening Clc1ccc(OC2CCN(Cc3nc(CC4CC4)no3)CC2)cc1 returned VDR inh 15.4%.
For Cc1ccc(Cl)cc1NC(=O)CN1C(=O)NC(C)(C2CC2)C1=O (stereo not drawn) the results were VDR inh 15.6%.

(list continues)
Screening CC(C)OC(=O)c1cccnc1SCC(=O)N(C)c1ccccc1 returned VDR inh 8.3%.
Cc1ccc(CC(=O)OCC(=O)NC2CCCC(C)C2C)cc1C (stereo not drawn) was read as VDR inh 31.7%[activator].
Screening Cc1cccc(NS(=O)(=O)c2ccc3[nH]c(=O)cc(C(=O)OC(C)C(=O)Nc4ccc([N+](=O)[O-])cc4)c3c2)c1 (stereo not drawn) returned VDR inh -26.8%.
Screening CCC1CCc2sc(C(=O)NC3CCN(Cc4ccccc4)CC3)cc2C1 (stereo not drawn) returned VDR inh -3.9%.
`COc1ccc(/C=C/C(=O)Nc2cc(C)nn2-c2nc3ccccc3n2Cc2cccc([N+](=O)[O-])c2)cc1` gave VDR inh 1.2%.
Screening C=CCNC(=O)c1c(CSc2ccc(Cl)cc2)noc1C(=O)NCCC returned VDR inh -11.5%.
COC(=O)c1cscc1NC(C)=O was read as VDR inh 5.0%.
`CS(=O)(=O)c1ccccc1C(=O)Nc1ccc(-c2nc3ccccc3o2)cc1` gave VDR inh -14.9%.
For CCC(=O)n1nc(-c2ccc(Cl)cc2)nc1SC the results were VDR inh -2.5%.
COc1ccc(Nc2cc(C)nc(-n3nc(C)cc3C)n2)cc1Cl was read as VDR inh -2.5%.

Compounds listed so far containing two or more sulfur atoms, in the order listed:
For CC(C)C(=O)NCC(c1cccs1)S(=O)(=O)c1ccc(F)cc1 (stereo not drawn) the results were VDR inh -15.6%.
Screening COc1ccc(S(=O)(=O)N(C)C[C@H]2Oc3ccc(NS(=O)(=O)c4ccc(F)cc4)cc3C(=O)N([C@H](C)CO)C[C@@H]2C)cc1 returned VDR inh 5.1%.

Further structures:
`COC1CCN(C(=O)CC2C(=O)NCCN2CC(C)(C)C)CC1` (stereo not drawn) gave VDR inh -4.3%.
Cc1cc(C(=O)N2CCC(C)CC2)on1 was read as VDR inh -11.3%.
`Cc1ccccc1Oc1ccccc1N` gave VDR inh -18.2%.
For Cc1cc(C)cc(-c2nnc(SCc3ccc(C(=O)O)cc3)o2)c1 the results were VDR inh -2.4%.
Screening O=C(OCCCc1cc2ccccc2c(=O)o1)N1CCOCC1 returned VDR inh -2.4%.
For O=C(c1cc2ccccn2n1)N1CCN(c2cccc(C(F)(F)F)c2)CC1 the results were VDR inh -4.7%.
CN(C(=O)c1nn(C)c2c1CSc1ccccc1-2)c1ccccc1Cl was read as VDR inh -9.2%.
CCOc1ccc(NC(=O)CN2CCN(CC(=O)Nc3ccc(C(=O)OC)cc3)CC2)cc1 was read as VDR inh -2.6%.
For CCOc1ccc(NC(=O)CN2CCSc3ccc(S(=O)(=O)N4CCCC4)cc32)cc1 the results were VDR inh 7.1%.
CN(CC1CCOCC1)C(=O)CC1C(=O)NCCN1Cc1ccccc1F (stereo not drawn) was read as VDR inh -9.2%.
`CCn1nc(C(=O)NNC(=O)CCOc2cc(C)ccc2C)c2ccccc2c1=O` gave VDR inh -21.5%.
`COc1ccccc1N/C(=N/S(=O)(=O)c1ccc(Cl)cc1)c1ccccc1` gave VDR inh -5.5%.
For COc1ccc(-c2nnc(SCC(=O)Nc3ccc4c(c3)OCCO4)n2N)cc1OC the results were VDR inh -6.3%.
`O=C(NCCCSc1ccccc1)c1cccnc1` gave VDR inh 9.7%.
CCn1cc(C2=NC(c3ccccc3)CO2)c2ccccc21 (stereo not drawn) was read as VDR inh -8.1%.
Cc1ccc(C)c(N2CCN(C(=O)CCc3nc(-c4cccc(C(F)(F)F)c4)no3)CC2)c1 was read as VDR inh -6.2%.
COc1ccc(CN(C)CC(O)COc2ccc(-c3ccccc3)cc2)cc1OC (stereo not drawn) was read as VDR inh 30.1%[activator].
Screening Cc1ccc(CCNC(=O)C2CCN(S(=O)(=O)N3CCCC3)CC2)cc1 returned VDR inh -6.1%.
Cc1nn(CC(=O)Nc2c(C)n(C)n(-c3ccccc3)c2=O)c(C)c1[N+](=O)[O-] was read as VDR inh -29.4%.
For Cc1ccc(CSCCNC(=O)CSc2ccccc2)cc1 the results were VDR inh 1.4%.
Screening Cc1ccc(-c2nc(C)c(CCNC(=O)C(=O)Nc3ccc4c(c3)OCCO4)s2)cc1 returned VDR inh 20.7%.
Screening CCOc1ccc2nc(NC3=NC(c4ccc(OC)cc4)CC(=O)N3)nc(C)c2c1 (stereo not drawn) returned VDR inh 17.9%.
For Cc1ccc(-c2nn3cnnc3c3ccccc23)cc1 the results were VDR inh -21.9%.
Screening Cc1cccc(N2CCN(S(=O)(=O)c3c(C)[nH]c(C)c3C(=O)N3CCCCC3)CC2)c1C returned VDR inh -7.4%.
CC(C)CN(C(=O)c1ccc(-n2cncn2)c([N+](=O)[O-])c1)C1CCS(=O)(=O)C1 (stereo not drawn) was read as VDR inh 4.1%.
`S=C(Nc1ccccc1)N1CCN(C2CCCCC2)CC1` gave VDR inh 3.3%.
`CCOc1ccc(CNS(=O)(=O)c2ccc3c(c2)CCCN3C(C)=O)cc1` gave VDR inh -4.7%.
Cc1ccc(C(=O)OCC(=O)N(CC(C)C)c2c(N)n(Cc3ccccc3)c(=O)[nH]c2=O)cc1[N+](=O)[O-] was read as VDR inh 8.9%.
COCCN(C(=O)c1ccc(NC2CC2)c([N+](=O)[O-])c1)c1c(N)n(CC(C)C)c(=O)[nH]c1=O was read as VDR inh -16.8%.
For COc1ccccc1NC(=O)CSC1=Nc2ccccc2C2=NC(CC(=O)NCc3ccc4c(c3)OCO4)C(=O)N12 (stereo not drawn) the results were VDR inh -5.3%.
For CCOC(=O)CSC1=C(C#N)C(c2ccc3c(c2)OCO3)CC(=O)N1 (stereo not drawn) the results were VDR inh -7.6%.
For COc1ccc2c(c1)C(=NNC(=O)c1ccccn1)c1cc(OC)ccc1-2 the results were VDR inh -13.9%.
`Cc1ccc2nc(/C(C#N)=C\c3cc(C)n(-c4cccc([N+](=O)[O-])c4)c3C)[nH]c2c1` gave VDR inh -9.8%.
Screening COc1ccc(OCc2ccc(-c3nc(C#N)c(N4CCC(C)CC4)o3)o2)cc1 returned VDR inh 13.6%.
O=C(NC1CCN(C(=O)Nc2cccc(F)c2)CC1)c1ccco1 was read as VDR inh 0.9%.
Screening O=C(CCCCCn1nnc2ccccc2c1=O)N[C@H](C(=O)O)c1ccccc1 returned VDR inh 3.3%.
`Cc1ccc(NC(=O)CCC(=O)Nc2nnc(C3CCCCC3)s2)cc1` gave VDR inh 12.6%.
`COCCN1CN=C(Nc2nc3ccccc3s2)NC1` gave VDR inh 7.1%.
`CC1=C(C(N)=O)C(c2cccc(O)c2)n2nc(CCCO)nc2N1` (stereo not drawn) gave VDR inh 22.3%.
For COc1cccc(-c2nc3ccccc3c(=O)n2NC(=O)c2cccnc2Cl)c1 the results were VDR inh -1.5%.
For COc1ccccc1C1N(c2ccc(F)cc2)C(=O)C2CCCN21 (stereo not drawn) the results were VDR inh 5.5%.
Screening CC(C)Cc1nc2oc3c(NCCCN4CCOCC4)ncnc3c2c2c1CCC2 returned VDR inh -4.0%.
Screening O=C(C1CCCCN1S(=O)(=O)c1ccccc1)N1CCN(Cc2ccccc2)CC1 (stereo not drawn) returned VDR inh -2.4%.
`CCn1c(SCC(=O)c2ccccc2)nnc1-c1ccoc1C` gave VDR inh -14.6%.
For COc1ccc(NC(=O)COc2ccc(N(C)S(=O)(=O)c3ccc(C)cc3)cc2)cc1 the results were VDR inh -1.0%.
